# FGF22 binding = shifts melting point of recombinant human FGF22; Q9HCT0; recombinant FGF22 thermal shift, SYPRO orange fluorescence; percent of sucrose octasulfate shift, DMSO zero; calls only at 9.99 µM; 340,000 compounds, 1.5% hits; AID 651658;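 active means melting point raised past a set limit in the mean and every replicate; three in four hits are not shown here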
# Target sequence (Q9HCT0 whole entry, looked up): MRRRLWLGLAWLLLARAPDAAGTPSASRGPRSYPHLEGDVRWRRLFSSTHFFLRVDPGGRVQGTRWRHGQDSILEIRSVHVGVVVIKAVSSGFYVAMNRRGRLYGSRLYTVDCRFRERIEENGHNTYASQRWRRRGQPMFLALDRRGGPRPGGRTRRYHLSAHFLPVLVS
# MLL AF4-AF9 inh = inhibitors of human MLL-AF4/AF9 interaction; P42568; inhibition, % at 10 µM; AlphaScreen, biotin-AF4 peptide binding to FLAG-AF9; 350,000 compounds, 0.47% hits;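 active means every replicate reaching a set inhibition limit, whatever the replicate mean, cut at about 25% in these data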;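 further: 0% = plate neutral control median and 100% = total signal loss; the record names both 10 and 1 µM as test concentration; the first replicate is given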
# Target sequence (P42568 whole entry, looked up): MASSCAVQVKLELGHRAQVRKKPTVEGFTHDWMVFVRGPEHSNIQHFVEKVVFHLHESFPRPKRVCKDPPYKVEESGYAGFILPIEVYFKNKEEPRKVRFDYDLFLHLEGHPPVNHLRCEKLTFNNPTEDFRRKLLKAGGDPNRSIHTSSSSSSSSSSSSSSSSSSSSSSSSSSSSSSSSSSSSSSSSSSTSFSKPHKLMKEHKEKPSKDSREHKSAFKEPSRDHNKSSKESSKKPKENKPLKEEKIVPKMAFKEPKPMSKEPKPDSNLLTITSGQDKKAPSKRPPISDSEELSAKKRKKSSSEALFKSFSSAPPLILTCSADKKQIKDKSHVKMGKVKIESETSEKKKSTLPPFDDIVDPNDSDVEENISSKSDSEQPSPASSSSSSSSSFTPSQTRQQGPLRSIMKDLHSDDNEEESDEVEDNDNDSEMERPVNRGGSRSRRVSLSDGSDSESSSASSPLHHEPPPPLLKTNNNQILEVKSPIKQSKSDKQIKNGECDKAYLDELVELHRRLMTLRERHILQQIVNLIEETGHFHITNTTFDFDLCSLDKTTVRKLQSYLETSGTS
# rRNA inh HTS = selective bacterial rRNA inhibition in E. coli | E. coli WT GFP vs humanized-ribosome RFP mutants, fluorescence, 24 h; stronger effect = lower value; DMSO median 0, no signal -100 | GFP signal change (wild-type ribosome), % (concentration not given with the values) | 350,000 compounds, 1.6% hits;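 active means significant combined selectivity score with lowered wild-type GFP, culture density cut under 30%, mutant RFP and density less affected; inactive means any of these conditions unmet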; further: one replicate is shown; some compounds called inactive have numbers as strong as hits
# rRNA inh HTS OD600 = recorded beside rRNA inh HTS, whose call it bears; OD600 change, %; measured here: OD600 growth;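 optical density of the mix in the first replicate; 0 = DMSO median and -100 = no signal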
# rRNA inh HTS RFP = further read-out of rRNA inh HTS, marked with its call; RFP signal change, %; measured here: RFP humanized mutant strains;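 first replicate; 0 = DMSO median and -100 = no signal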
# The depositor's hits bear a star; i = inactive; & = joins results of further samples. Not all compounds are listed (hit frequency here may not be typical).
SMILES,FGF22 binding,MLL AF4-AF9 inh,rRNA inh HTS,rRNA inh HTS OD600,rRNA inh HTS RFP
C[C@@H]1CCCCO[C@@H](CN(C)S(=O)(=O)c2cn(C)cn2)[C@@H](C)CN([C@@H](C)CO)C(=O)c2cc(N(C)C)ccc2O1,i,-10,3,4,0.1
C[C@H](O)[C@@H]1CN2CCc3c([nH]c4ccccc34)[C@@H]2C[C@@H]1N(C)C(=S)NCCc1ccccc1,i,10.0,-6,-3,0.8
COC(=O)C[C@H]1C[C@H]2c3cc(NS(=O)(=O)c4ccc(F)cc4)ccc3O[C@H]2[C@H](CO)O1,i,2.4,1,-13,26
C[C@H](CO)N1C[C@H](C)[C@H](CN(C)S(=O)(=O)c2ccccc2F)Oc2ncc(/C=C/c3ccccc3)cc2C1=O,i,5.1&5.5,-12,4,-1.6
Cc1ccccc1-c1ccc([C@H]2[C@@H](CO)N3CCCCN(C(=O)CN4CCOCC4)C[C@H]23)cc1,i,-2.6,2,-5,0.7
Cc1noc(C)c1S(=O)(=O)N(C)C[C@@H]1OCCCC[C@H](C)Oc2ccc(NS(=O)(=O)c3cn(C)cn3)cc2C(=O)N([C@H](C)CO)C[C@@H]1C,i,-1.3,2,3,-0.7
O=C([C@H]1[C@H](CO)[C@H]2Cn3c(cccc3=O)[C@@H]1N2C(=O)CC1CC1)N1CCCCC1,i,-0.2,2,13,0.5
C[C@H]1CN([C@@H](C)CO)C(=O)Cc2cc(NC(=O)NC3CCCCC3)ccc2O[C@@H]1CN(C)C(=O)NC1CCCCC1,i,-2.8,0,5,0.6
Cc1ccc(C(=O)NCC(=O)N2CCN(c3ccccc3O)CC2)s1,i,-10,2,10,0.8
Cc1cc(C(=O)Nc2cccc3c2O[C@H](CN(C)C)[C@@H](C)CN([C@@H](C)CO)C3=O)n(C)n1,i,-2.0,-1,5,-2.5
CC(C)(C)OC(=O)N1CCCC(C(=O)Nc2ccc(C(=O)NCCc3ccccc3)cc2)C1 (centres undefined),i,-0.7,-29,-44,-9.7
CN1CCN(C(=O)C[C@@H]2CC[C@@H]3[C@H](COC[C@H](O)CN3Cc3ccc(Oc4ccccc4)cc3)O2)CC1,i,5.4,-5,-33,8.8
CCCNC(=O)N1C[C@@H]2[C@H](c3ccccc31)[C@@H](CO)N2C(=O)Nc1ccccc1F,i,0.3,2,-6,-0.9
CN1C(=O)c2cc(NC(=O)c3cnccn3)ccc2OC[C@H]2O[C@@H](CC(=O)NCC3CCCCC3)CC[C@@H]21,i,3.1,6,15,-0.5
CCCC(=O)Nc1ccc2c(c1)OC[C@H](C)N(Cc1ccccc1F)C[C@@H](C)[C@@H](OC)CN(C)C2=O,i,1.6,-7,-8,4.5
C[C@H]1CN([C@@H](C)CO)C(=O)c2cc(C#CC3CC3)cnc2O[C@@H]1CN(C)S(C)(=O)=O,i,-4.0,3,2,-2.5
COc1ccc(-c2cnc3c(c2)C(=O)N([C@@H](C)CO)C[C@@H](C)[C@@H](CN(C)C(=O)C2CCCCC2)O3)cc1,i,-1.7,4,-1,0.8
CN(C)C(=O)[C@@H]1[C@@H](CO)[C@@H]2Cn3c(cccc3=O)[C@H]1N2C(=O)c1ccc(F)cc1,i,0.3,3,7,1.2
COc1cccc(NC(=O)C[C@@H]2CC[C@H]3[C@H](COc4ccc(NC(=O)C5CC5)cc4C(=O)N3C)O2)c1,i,-1.8,-2,-7,-0.3
CC1(C(=O)NS(=O)(=O)C2CC2)CCN(C(=O)c2ccc3c(c2)OCO3)C1 (centres undefined),i,-2.7,8,9,-1.2
Cc1noc(C)c1NC(=O)Nc1ccc2c(c1)CC(=O)N([C@@H](C)CO)C[C@@H](C)[C@H](CN(C)Cc1ccc(C(F)(F)F)cc1)O2,i,1.3,-4,-25,4.6
CS(=O)(=O)N1[C@@H]2c3ccc(C4=CCCCC4)c(=O)n3C[C@@H]2[C@@H](CO)[C@@H]1C(=O)NCc1ccncc1,i,1.0,2,4,-1.3
CCCNC(=O)N1CC2(CCN(C(C)=O)CC2)c2c(n(C)c3cc(OC)ccc23)[C@@H]1CO,i,2.7,3,11,-4.2
CCC(c1nc2ccccc2[nH]1)n1c(=O)c(-c2cccnc2)nc2ccccc21 (centres undefined),i,-0.8,16,17,1.7
COc1cccc(C(O)c2nc(-c3ccccc3C)cs2)c1 (centres undefined),i,-3.1,-18,-44,-8.0
CC(C)NC(=O)N(C)C[C@@H]1Oc2ccc(NC(=O)Nc3cccc4ccccc34)cc2CC(=O)N([C@@H](C)CO)C[C@H]1C,i,1.4,0,0,0.9
COc1ccc(NC(=O)Nc2cccc3c2O[C@@H](CN(C)S(=O)(=O)c2cccs2)[C@@H](C)CN([C@@H](C)CO)C3=O)cc1,i,-0.8,-2,-10,1.7
COc1ccc2c3c(n(C)c2c1)[C@H](CO)N(Cc1ccccc1Cl)CC31CCN(C(=O)CN(C)C)CC1,i,15,1,-3,1.8
O=C(C[C@H]1C=C[C@H](NC(=O)NC2CCCCC2)[C@H](CO)O1)NCc1ccc(F)cc1,i,0.2,-6,-6,-1.2
N#Cc1ccc(-c2nc3ccc(Br)cn3c2Cc2cccc(Cl)c2)cc1,i,-1.6,-28,-41,8.4

# For convenience, eleven of the compounds above.
SMILES,FGF22 binding,MLL AF4-AF9 inh,rRNA inh HTS,rRNA inh HTS OD600,rRNA inh HTS RFP
CC1(C(=O)NS(=O)(=O)C2CC2)CCN(C(=O)c2ccc3c(c2)OCO3)C1 (centres undefined),i,-2.7,8,9,-1.2
Cc1noc(C)c1NC(=O)Nc1ccc2c(c1)CC(=O)N([C@@H](C)CO)C[C@@H](C)[C@H](CN(C)Cc1ccc(C(F)(F)F)cc1)O2,i,1.3,-4,-25,4.6
CS(=O)(=O)N1[C@@H]2c3ccc(C4=CCCCC4)c(=O)n3C[C@@H]2[C@@H](CO)[C@@H]1C(=O)NCc1ccncc1,i,1.0,2,4,-1.3
CCCNC(=O)N1CC2(CCN(C(C)=O)CC2)c2c(n(C)c3cc(OC)ccc23)[C@@H]1CO,i,2.7,3,11,-4.2
CCC(c1nc2ccccc2[nH]1)n1c(=O)c(-c2cccnc2)nc2ccccc21 (centres undefined),i,-0.8,16,17,1.7
COc1cccc(C(O)c2nc(-c3ccccc3C)cs2)c1 (centres undefined),i,-3.1,-18,-44,-8.0
CC(C)NC(=O)N(C)C[C@@H]1Oc2ccc(NC(=O)Nc3cccc4ccccc34)cc2CC(=O)N([C@@H](C)CO)C[C@H]1C,i,1.4,0,0,0.9
COc1ccc(NC(=O)Nc2cccc3c2O[C@@H](CN(C)S(=O)(=O)c2cccs2)[C@@H](C)CN([C@@H](C)CO)C3=O)cc1,i,-0.8,-2,-10,1.7
COc1ccc2c3c(n(C)c2c1)[C@H](CO)N(Cc1ccccc1Cl)CC31CCN(C(=O)CN(C)C)CC1,i,15,1,-3,1.8
O=C(C[C@H]1C=C[C@H](NC(=O)NC2CCCCC2)[C@H](CO)O1)NCc1ccc(F)cc1,i,0.2,-6,-6,-1.2
N#Cc1ccc(-c2nc3ccc(Br)cn3c2Cc2cccc(Cl)c2)cc1,i,-1.6,-28,-41,8.4

# (continued)
SMILES,FGF22 binding,MLL AF4-AF9 inh,rRNA inh HTS,rRNA inh HTS OD600,rRNA inh HTS RFP
C[C@H](CO)N1C[C@H](C)[C@H](CN(C)C(=O)NC2CCCCC2)Oc2c(NC(=O)Nc3ccc4c(c3)OCO4)cccc2C1=O,i,14,-2,-11,-1.4
CCC(=O)N1[C@@H]2c3cccc(=O)n3C[C@@H]2[C@@H](CO)[C@@H]1C(=O)NCc1ccc(F)cc1,i,0.2,2,10,-0.1
COc1ccc(S(=O)(=O)N(C)C[C@H]2OCCCC[C@H](C)Oc3ccc(NC(=O)c4ccncc4)cc3C(=O)N([C@@H](C)CO)C[C@@H]2C)cc1,i,-0.2,-1,-2,0.3
C[C@H]1CN([C@@H](C)CO)C(=O)c2cccc(N(C)C)c2O[C@@H]1CN(C)C(=O)Nc1cccc2ccccc12,i,-2.5,3,-6,0.7
Cc1ccc(S(=O)(=O)N(C)C[C@@H]2Oc3ccc(NC(=O)CCN4CCOCC4)cc3CC(=O)N([C@H](C)CO)C[C@H]2C)cc1,i,-0.8,2,4,-2.7
Cn1nc(C(C)(C)C)cc1NC(=O)C1(C)CCN1C(=O)CC(c1ccccc1)c1ccccc1 (centres undefined),i,0.1,-7,-24,1.9
C[C@@H]1CCCCO[C@@H](CN(C)S(=O)(=O)c2cn(C)cn2)[C@@H](C)CN([C@H](C)CO)C(=O)c2cc(NC(=O)C3CCCCC3)ccc2O1,i,-0.3,1,9,1.1
CC[C@H]1C=C[C@@H](C(C(=O)OC)C(=O)OC)CN1C(C)=O,i,-2.1,8,6,-3.7
N#C[C@H]1[C@H](c2ccc(C#CC3CC3)cc2)[C@@H](CO)N1S(=O)(=O)c1ccccc1,i,0.4,0,2,-1.2
C[C@H]1CCCCO[C@@H](CN(C)S(=O)(=O)c2ccccc2)[C@@H](C)CN([C@@H](C)CO)C(=O)c2cc(NC(=O)NC3CCCCC3)ccc2O1,i,-2.1,-2,0,0.7
CC(=O)N1[C@H](CO)[C@H](c2ccccc2)C12CN(Cc1nccs1)C2,i,-2.9,2,3,0.1
C[C@@H]1CN([C@H](C)CO)C(=O)Cc2cc(NC(=O)Cn3cnnn3)ccc2O[C@H]1CN(C)S(=O)(=O)c1ccc(Cl)cc1,i,0.6,2,-4,-0.6
COc1cc(NC(=O)C2(C)CCN2C(C)C)cc(OC)c1OC (centres undefined),i,0.5,7,7,-5.5
COc1ccccc1S(=O)(=O)N[C@H]1CC[C@@H](CC(=O)NCc2cccc(F)c2)O[C@@H]1CO,i,1.9,2,0,-0.6
CCCNC(=O)Nc1ccc2c(c1)OC[C@@H](C)N(Cc1ccccn1)C[C@H](C)[C@@H](OC)CN(C)C2=O,i,-1.9,-3,-2,0.8
CO[C@@H]1CN(C)C(=O)c2cc(C#N)ccc2OC[C@H]2O[C@@H](CC[C@H]2OC)CCN(C)C(=O)[C@H]1C,i,8.2,2,-9,-0.9
COc1cccc(C(c2nnnn2-c2c(C)cccc2C)N2CCN(C/C=C/c3ccccc3)CC2)c1OC (centres undefined),i,11,-9,-43,12
C[C@@H]1CN([C@H](C)CO)C(=O)Cc2cc(NS(=O)(=O)c3cn(C)cn3)ccc2O[C@H]1CN(C)S(=O)(=O)c1cccs1,i,-0.5,3,2,0.3
CO[C@H]1CN(C)C(=O)c2ccc(NC(=O)C3CC3)cc2OC[C@H](C)N(Cc2ccccc2)C[C@@H]1C,i,0.1,-3,-11,3.8
Cn1c(=O)c2cc(NC(=S)NC3CCCCC3)ccc2n1Cc1cccc(C(F)(F)F)c1,i,1.6,-2,-4,-2.4
C[C@H]1CN([C@@H](C)CO)C(=O)c2cccc(NC(=O)NC3CCCCC3)c2O[C@@H]1CN(C)S(=O)(=O)c1ccc(F)cc1,i,-1.2,-1,2,-0.5
COCC(=O)Nc1ccc2c(c1)[C@H]1C[C@H](CC(=O)NCc3ccc(OC)cc3)O[C@@H](CO)[C@H]1O2,i,-1.9,2,6,-1.3
COc1ccccc1NC(=O)N1C[C@H]2[C@@H](c3ccccc31)[C@@H](CO)N2C(=O)C1CC1,i,-19,4,9,-3.5
O=C(CN1CCOCC1)N[C@H]1CC[C@H](CCNS(=O)(=O)c2ccccc2F)O[C@H]1CO,i,-0.6,5,8,-0.2
O=C(Nc1ccc(F)cc1)C(c1ccncc1)N1CCN(CC(=O)N2CCCC2)CC1 (centres undefined),i,-1.3,10,8,-1.1
COc1ccc(CNC(=O)C[C@H]2CC[C@H](NC(=O)CN(C)C)[C@@H](CO)O2)cc1,i,1.2,-5,7,0.1
CC(C)NC(=O)N[C@H]1CC[C@@H](CCn2cc(-c3ccc(F)cc3)nn2)O[C@H]1CO,i,-0.9,-1,8,-2.2
C[C@H](CO)N1C[C@H](C)[C@H](CN(C)Cc2ccc3c(c2)OCO3)Oc2c(NC(=O)c3nc4ccccc4s3)cccc2C1=O,i,10,-10,-20,4.1
COc1cccc(NC(=O)C[C@@H]2CC[C@H]3[C@H](COc4ccc(NC(=O)C5CCC5)cc4C(=O)N3C)O2)c1,i,-2.3,-1,-12,3.4
Cc1ccc(C(=O)NCC(=O)OCc2nnc(-c3ccc([N+](=O)[O-])cc3)o2)cc1,i,-2.1,13,19,-2.8
CN1c2ccc(-c3ccc(C#N)cc3)cc2[C@H]2[C@H](CCN2S(=O)(=O)c2cccc(F)c2)[C@H]1CO,i,-0.2,0,-1,1.1
CCC(=O)N1CC2(C1)CN(C(=O)c1ccccn1)[C@H](CO)c1c2c2ccc(OC)cc2n1C,i,3.8,1,1,1.1
Cc1noc(C)c1S(=O)(=O)N(C)C[C@@H]1OCc2cnnn2CCCC(=O)N([C@@H](C)CO)C[C@H]1C,i,-1.7&-0.6,5&0,16&1,-0.4&-2.2
CCCCCCn1cc(CN2CC(N3CCN(Cc4ccccc4F)CC3)CS2(=O)=O)nn1 (centres undefined),i,-4.3,-12,-8,3.5
Cn1c(=O)c2[nH]c(C3CC=CCC3)nc2n(C)c1=O (centres undefined),i,-0.6,12,10,1.7

# Assay outcomes as filed in PubChem.
